Screening results from PubChem BioAssay.
FEN1 inh – human FEN1 inhibition. P39748. Potency, µM (series often up to 114 µM), for inactives: top-dose activity change, negative = inhibition, hits mostly inhibitors. Recombinant FEN1 flap cleavage, fluorescence, 15 min. hit rate 0.35% among 390,000. AID 588795; also: nearly all actives have a fitted effect of over 65% in size
Target sequence (P39748 whole entry, looked up): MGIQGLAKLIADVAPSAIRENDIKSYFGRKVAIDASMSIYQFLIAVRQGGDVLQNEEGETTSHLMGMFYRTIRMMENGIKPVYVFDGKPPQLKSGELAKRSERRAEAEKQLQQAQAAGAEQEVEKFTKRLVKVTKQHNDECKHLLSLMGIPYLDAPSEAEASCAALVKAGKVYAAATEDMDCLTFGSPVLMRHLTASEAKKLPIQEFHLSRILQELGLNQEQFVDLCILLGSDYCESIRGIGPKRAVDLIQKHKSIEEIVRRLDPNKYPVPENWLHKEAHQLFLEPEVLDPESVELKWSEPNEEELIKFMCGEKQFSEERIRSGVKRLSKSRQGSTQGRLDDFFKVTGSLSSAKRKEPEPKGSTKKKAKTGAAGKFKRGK
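In this screen, 50 nM flap DNA substrate was added to 10 nM FEN1 pretreated with compound for 15 min at room temperature; cleavage was followed with reads at 0 and 15 min, and Hill fitting gave concentration–response parameters.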
N370S GC mod – inhibitors or activators of N370S glucocerebrosidase for Gaucher disease. P04062. N370S GC spleen homogenate, 4MU-glucoside fluorescence. Potency, µM (titrated, usually from 59.4 µM), for the others: at the top dose activity change, negative = inhibition, hits mostly inhibitors. hit rate 0.092% among 330,000. AID 2101;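 also: 0% = full enzyme activity and -100% = no enzyme basal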
The depositor's hits bear a star; u = inconclusive; x = not tested or not shown; [ ] = another dose, or the depositor's remark. Calls follow the shape of the dose curve; as a rule, active = well fitted curve in the direction sought with a large enough effect; inconclusive = small, poorly fitted or top-dose-only effect, or another doubt; inactive = no such curve, though single readings can be large; an effect the other way counts as inactive or inconclusive. Unless noted, % is scaled to controls: 0 for no effect and ±100 for the full control effect; potency is read from the fitted curve at half-maximal effect. Some of the compounds tested, and most or all hits are left out here.

SMILES	FEN1 inh	N370S GC mod
Cc1cccc(OCC(=O)N2CCCc3ccccc32)c1	20.0%	9.9%
CCN1CC2=C(OC(N)=C(C#N)C2c2cccs2)/C(=C/c2cccs2)C1 (stereo not given)	-11.7%	20.2%
COc1ccc(-c2ccnc3c(Br)c(C)nn23)cc1	9.7%	x
COc1ccc(NC(=S)N2CCN(Cc3ccccc3)CC2)c(OC)c1	-0.7%	0.5%
CCn1cc(C(=O)O)c(=O)c2cc(F)c(N3CCN(C(=S)NC(=O)c4ccc(Br)cc4)CC3)cc21	u	-7.1%
CCOc1ccc(C(=O)Nc2cc(-c3nc4ccccc4s3)ccc2OC)cc1	8.1%	x
Cc1ccc(Cn2c(N3CCN(CCO)CC3)nc3c2c(=O)n(C)c(=O)n3C)cc1	0.1%	-7.4%
Cc1cccc2cc(CN(C(=O)c3cccc(Cl)c3)c3ccccc3)c(=O)[nH]c12	5.2%	x
CCCn1cc(S(=O)(=O)c2ccc(F)cc2)c(=O)c2cc(OCC)ccc21	-16.5%	13.8%
CN1CC(c2ccccc2)C2(COc3ccccc3C2=O)C12C(=O)Nc1ccccc12 (stereo not given)	u	13.5%
COc1ccc(CCNC(=O)Cn2nc(C)c3c(C)n(-c4ccccc4)nc3c2=O)c(OC)c1	18.4%	-2.8%
CCOC(=O)C(Cc1c[nH]c2ccccc12)NC(=O)COc1ccc(Cl)c(C)c1 (stereo not given)	-17.8%	x
COC(=O)c1cc(C)nc(Sc2ccccc2N)n1	9.3%	0.6%
CCC(=O)Nc1ccc(S(=O)(=O)NCC2CCCO2)cc1 (stereo not given)	-0.4%	6.8%
O=C(Nc1ccc2nc(SCC(=O)N3CCCC3)sc2c1)c1cccc(Cl)c1	-5.8%	x
Cc1nc(C(=O)NC(C)C)nn1-c1cc(Cl)cc(Cl)c1	4.8%	-10.6%
CC(=O)N1CCC(N(CCN2CCOCC2)C(=S)Nc2c(C)cccc2C)CC1	-1.9%	-0.9%
CC1(C)CC(=O)C2=C(C1)NC(=O)CC2c1ccc(N(CCC#N)CCC#N)cc1 (stereo not given)	-13.6%	-2.6%
COc1ccccc1NC(=S)N1CCCCCC1	2.1%	-3.5%
O=C1c2ccccc2C(=O)N1CCC(=O)N1CCCc2ccccc21	-3.6%	8.3%
O=C(Nc1ccnn1C1CCN(CCCC2CCCC2)CC1)c1ccccc1	-9.3%	-13.4%
COc1ccc([C@H]2CC(=O)C=C(c3ccc(Cl)c(C(F)(F)F)c3)C2)cc1	-0.8%	x
Cc1occc1-c1nnc(SCC(=O)N2CCCC(C)C2)o1 (stereo not given)	-11.3%	x
O=C(CCl)NN1C(=O)NC2(CCCCC2)C1=O	5.6%	0.7%
O=C(NCc1ccccn1)Nc1ccc(Br)cc1	-3.2%	-6.0%
Cc1nc(NC2=NCN(Cc3cccnc3)CN2)nc2ccccc12	-14.4%	3.0%
COc1ccc(C)cc1NC(=O)C(Sc1nnc(Nc2ccccc2F)s1)c1ccccc1 (stereo not given)	-8.7%	9.1%
O=C(N1CCOCC1)N1CCOCC1	-3.7%	-21.3%[2.35 µM]
COC(=O)C1=C(C)NC2=C(C(=O)CC(C)(C)C2)C1c1cnn(C)c1C (stereo not given)	11.1%	6.5%
COc1cc(CNCC(O)c2ccccc2)ccc1OCc1ccc(Cl)nc1 (stereo not given)	2.2%	-21.8%
Cn1nc(CC(=O)NCCN2C(=O)CSC2=O)c2ccccc2c1=O	0.9%	3.8%
Cc1nc2c([N+](=O)[O-])c(C)c(C)cc2[nH]1	3.2%	-1.3%
O=C(NNC(=O)c1cccs1)c1ccc([N+](=O)[O-])cc1	-0.4%	14.2%
CCN(Cc1ccc(OC)c(COC)c1)CC1CCCN(CCc2cccc(OC)c2)C1 (stereo not given)	-6.9%	-5.5%
Cc1[nH]c2ccccc2c1C(c1ccncc1)N1CCN(c2ccc(F)cc2)CC1 (stereo not given)	-1.7%	-5.4%
CC(C)CCC1(C)NC(=O)N(CC(=O)c2ccc[nH]2)C1=O (stereo not given)	-2.4%	3.6%
CCN(CC)CCOC(=O)c1ccc(NC(=O)CNC(=O)c2ccccc2)cc1	-3.5%	-8.7%
CC(C)c1csc(CN2CCCC(CCC(=O)NCc3ccccc3F)C2)n1 (stereo not given)	18.8%	1.9%
O=C(CCn1c(=O)oc2ccccc21)Nc1nccs1	-8.7%	-20.3%
Cc1ccc(NC(=S)NC(NC(=O)c2ccccc2)C(Cl)(Cl)Cl)c(C)c1 (stereo not given)	-2.8%	7.1%
CCN1CCc2c(sc(NC(=O)c3ccc(C(=O)c4ccccc4)cc3)c2C(N)=O)C1	-9.3%	u
CCSc1nnc(NC(=O)Cc2ccc(OC)cc2)s1	6.3%	13.2%
COC(CNC(=O)CN1C(=O)COc2ccc(S(=O)(=O)N3CCOCC3)cc21)OC	-2.8%	2.8%
Cc1cc(C2=NNC(=Nc3ccc(S(=O)(=O)N4CCOCC4)cc3)SC2)c(C)n1C	-4.2%	24.0%
O=c1cc(-c2ccccc2)nc2nc(CCc3ccccc3)[nH]n12	-2.5%	-18.7%
CC(C)[C@H](Nc1ccc(S(=O)(=O)N2CCOCC2)cc1[N+](=O)[O-])C(=O)OCC(=O)N(C(C)C)C(C)C	-7.6%	18.1%
C/C(=N\OC(=O)c1ccc(F)cc1)c1sc(-c2ccccc2)nc1C	-1.6%	u
COc1ccc(CNS(=O)(=O)CCNC(=O)c2ccc(OC)cc2)cc1	-4.1%	1.5%
COc1ccc(OCC(=O)NNC(=O)c2cccc(S(=O)(=O)N(C)C)c2)cc1	-1.8%	0.3%
CC(C)CC(=O)NNC(=O)C(C)C	5.1%	3.5%
CC(=O)Cc1nsc(NC(=O)c2ccc(-c3cccc(C(F)(F)F)c3)o2)n1	-13.8%	5.6%
Cc1cccc(NC(=O)Nc2ccc(C)cc2Br)c1	-6.7%	4.5%
CC(C)NC(=O)N(Cc1ccccc1)Cc1cccs1	3.6%	2.1%
CCOC(=O)C(C)/C(C)=N/NC(=O)CCC(=O)Nc1cc(C)ccc1C (stereo not given)	1.1%	2.2%
O=C(NCc1ccccc1)c1ccccc1NC(=O)C1CCCCC1	-10.9%	0.5%
O=C(NCc1ccc2c(c1)OCO2)c1ccc(CS(=O)Cc2cccc(Cl)c2)o1 (stereo not given)	8.5%	13.1%
Cc1ccc(C(=O)N/N=C\C2CC=CCC2)cc1[N+](=O)[O-] (stereo not given)	-2.4%	-10.1%
CC(=O)NC1=NC(=O)/C(=C/N2CCOCC2)S1	-10.5%	-10.1%
COC(=O)CN(C)C(=O)c1ccccc1OC1CCN(S(C)(=O)=O)CC1	-3.5%	-2.1%
COc1nnc(-c2ccc(N3CCOCC3)c(NC(=O)c3ccccc3)c2)c2ccccc12	-0.1%	6.1%

Structural class, the compounds so far with fluorine (eight)
SMILES	FEN1 inh	N370S GC mod
CCn1cc(C(=O)O)c(=O)c2cc(F)c(N3CCN(C(=S)NC(=O)c4ccc(Br)cc4)CC3)cc21	u	-7.1%
CCCn1cc(S(=O)(=O)c2ccc(F)cc2)c(=O)c2cc(OCC)ccc21	-16.5%	13.8%
COc1ccc([C@H]2CC(=O)C=C(c3ccc(Cl)c(C(F)(F)F)c3)C2)cc1	-0.8%	x
COc1ccc(C)cc1NC(=O)C(Sc1nnc(Nc2ccccc2F)s1)c1ccccc1 (stereo not given)	-8.7%	9.1%
Cc1[nH]c2ccccc2c1C(c1ccncc1)N1CCN(c2ccc(F)cc2)CC1 (stereo not given)	-1.7%	-5.4%
CC(C)c1csc(CN2CCCC(CCC(=O)NCc3ccccc3F)C2)n1 (stereo not given)	18.8%	1.9%
C/C(=N\OC(=O)c1ccc(F)cc1)c1sc(-c2ccccc2)nc1C	-1.6%	u
CC(=O)Cc1nsc(NC(=O)c2ccc(-c3cccc(C(F)(F)F)c3)o2)n1	-13.8%	5.6%

(list continues)
SMILES	FEN1 inh	N370S GC mod
O=C(OCC(=O)N1CCCCC1)c1n[nH]c(=O)c2ccccc12	-3.2%	-18.4%
COCc1ccccc1C1=CC(=O)C[C@H](c2ccc(OC)cc2)C1	-2.3%	x
CCN(CC)c1ccc(CN(C(=O)c2ccco2)C2CCS(=O)(=O)C2)cc1 (stereo not given)	-9.8%	9.2%
Cc1cccc(Nc2c(F)c(F)c(F)c(F)c2C(=O)O)c1	-0.6%	11.5%
O=C(CSc1nnnn1-c1ccccc1)NCC1(N2CCCCC2)CCCCC1	-7.1%	x
C=CCNc1nc(NCc2ccccc2)nc(OCC)n1	17.4%	-0.5%
CCOC(=O)C1=C(C)NC(=O)NC1c1ccccc1 (stereo not given)	7.8%	6.6%
O=C(Nc1ccccc1N1CCOCC1)c1cc2c(s1)CCCCC2	4.8%	23.9%
NC(=O)NC(=O)COC(=O)CCCCCNS(=O)(=O)c1ccc2c(c1)OCCO2	-11.8%	-0.7%
C=CCNC(=S)NNC(=O)c1ccc(OCCC)cc1	6.0%	0.9%
CCCN(C(=O)Cc1csc(-c2ccccc2)n1)C1CCS(=O)(=O)C1 (stereo not given)	-12.9%	x
CCC(NC(=O)c1ccccc1NC(=O)c1ccco1)C(=O)NNC(=O)c1ccncc1 (stereo not given)	17.3%	-1.4%
Cc1ccc2nc(-c3ccc(SCC(=O)O)nc3)[nH]c2c1	-12.2%	14.2%
CC(CNC(=O)COc1ccccc1)OC(=O)Nc1ccc(Cl)c(Cl)c1 (stereo not given)	-9.9%	-11.5%
O=C1Cc2cc(CCN3CCN(c4nsc5ccccc45)CC3)c(Cl)cc2N1	x	-20.1%
CN(C)S(=O)(=O)c1ccc(C(=O)N2CCCC2c2nc3ccccc3s2)cc1 (stereo not given)	-5.0%	-28.4%
Cc1cccc(NC(=O)c2cccc(S(=O)(=O)N(C)c3ccccc3)c2)n1	1.9%	x
CCn1c(=O)c([N+](=O)[O-])c(NCc2ccc3c(c2)OCO3)c2ccccc21	u	18.5%
COc1cc(/C=N/N=C(/N)c2nonc2N)cc(Br)c1OCc1cccc(C)c1	-14.7%	-22.8%
Cc1ccc(F)cc1NC(=O)C1CC(=O)N(CCc2ccccc2)C1 (stereo not given)	15.6%	4.9%
Cc1ccc(S(=O)(=O)N2CCN(C(=O)CN3CCCCC3)C2C(C)C)cc1 (stereo not given)	3.7%	-13.7%
CSCC(=O)Nc1nc(-c2ccc3c(c2)OCCO3)cs1	-14.7%	10.0%
COc1cc(C(=O)NNC(=O)C2CC=CCC2C(=O)O)cc(OC)c1OC (stereo not given)	7.9%	8.2%
COc1cccc(N2CCN(C3=NS(=O)(=O)C(c4ccc(C)cc4)=C3C)CC2)c1	-1.6%	x
Cc1noc(C)c1S(=O)(=O)NCCCN1CCN(Cc2ccccc2)CC1	x	8.2%
O=C(CC1C(=O)NCCN1C(=S)Nc1ccccc1)Nc1ccc2c(c1)OCCO2 (stereo not given)	0.3%	2.3%
O=S(=O)(Cc1cc(-c2ccc(Cl)cc2)no1)c1ccccc1	4.0%	4.4%
CN1CCN(S(=O)(=O)c2ccc(NC(=O)c3ccc(Br)o3)cc2)CC1	-0.4%	-3.5%
Fc1ccc(-n2nnc(-c3cccnc3Cl)n2)cc1	-5.0%	-2.2%
O=C(Nc1cccnc1)c1sc2cccc(F)c2c1Cl	-2.2%	-8.6%
O=C(CNc1ccccc1C(=O)O)c1ccccc1	1.5%	5.6%
O=C(c1noc2c1CCCC2)N1CCOCC1	-1.0%	7.9%
CCOC(=O)C1=CN(Cc2ccco2)S(=O)(=O)NC1c1ccc(C(F)(F)F)cc1 (stereo not given)	-1.1%	x
CC(C)CNC(=O)c1c(N)n(/N=C/c2ccccn2)c2nc3ccccc3nc12	2.2%	12.1%
O=C(CN1C(=O)CSc2ccccc21)NC1CCCC1	-4.5%	2.8%
COc1ccc(-n2c(SCC(=O)Nc3ccc(C(=O)O)cc3)nnc2-c2cccs2)cc1	-2.7%	-4.3%
COc1cccc(N2CCN(c3ccc4nnc(CCC(=O)N5CCC(C)CC5)n4n3)CC2)c1	0.4%	-2.6%
O=C1N[C@H](Cc2ccccc2)CO1	4.3%	-1.6%
CC(C)Cc1cc(CN2CCCC(CO)(Cc3cccc(Cl)c3)C2)[nH]n1 (stereo not given)	4.8%	-0.7%
C[C@H](NC(=O)c1ccc(Cl)c(S(=O)(=O)N2CCOCC2)c1)c1nc2ccccc2[nH]1	3.2%	x
O=C(NC1CCCC1)C(Cc1ccccc1)n1cccc1 (stereo not given)	0.7%	2.3%
CCC(=O)c1ccc(OCC(=O)NCCc2ccccn2)cc1	31.6%	4.4%
COc1cccc2c3c(c(C)nc12)CC(C)O3 (stereo not given)	-16.7%	2.3%
O=c1c2ccccc2nc2n1CCN2	-17.8%	-2.4%
CCOCCCNC(=O)C(c1ccc(Cl)cc1)N1CCC2(CC1)OCCO2 (stereo not given)	-1.3%	11.9%
CC1CCN(S(=O)(=O)c2ccc3c(c2)CCN3C(=O)Nc2ccc(Br)cc2)CC1	14.7%	x
CCOC(=O)CCNC(=O)CCNC(=O)C(c1ccccc1)c1ccccc1	-0.4%	-1.6%
Cc1ncsc1C(=O)N1CCCC(CNS(=O)(=O)c2cccs2)C1 (stereo not given)	17.3%	4.9%
COc1cccc(OCc2cc(C(=O)NCc3cnc4ccccn34)no2)c1	12.9%	-4.3%
COc1ccc(OC)c(C=NNC(=O)c2ccc(NS(=O)(=O)c3cccs3)cc2)c1	5.8%	x
COc1ccc(/C=N/Nc2nc(-c3ccc(Cl)cc3)cc(C(F)(F)F)n2)cc1OC	-9.1%	-6.6%
COC(=O)CN1C(=O)CSc2ncccc21	7.3%	11.0%
CC(C)(C)c1ccc(C(=O)NCCCNC(=O)c2ccco2)cc1	-2.8%	-23.6%
O=c1c2ccccc2cnn1Cc1n[nH]c(=S)n1-c1cc(Cl)cc(Cl)c1	0.6%	4.7%
